PME-1 primary: blocks human protein phosphatase methylesterase 1 | Q9Y570 | recombinant PME-1, FP-Rh probe fluorescence polarization | inhibition, % at 5.9 µM | hit rate 0.53% among 320,000 | AID 2130;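 active = inhibition above the campaign mean of all compounds plus 3 SD, cut at about 26% in these data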;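 note: competitive labeling of PME-1 active site by serine hydrolase directed probe; 0% = PME-1 with DMSO and 100% = wells lacking PME-1 enzyme; inhibitors block probe labeling so polarization falls and inhibition rises; many of its hits are not listed in these tables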
LYPLA2 counter: counter-screen for PME1 inhibitors: inhibitors of human LYPLA2; hit rate 0.38% among 320,000; AID 2177; inhibition, % at 5.9 µM; recombinant LYPLA2, FP-Rh probe fluorescence polarization; O95372;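 active = inhibition above the screen-wide mean plus 3 SD, limit set per campaign, cut at about 26% in these data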;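 note: 0% = LYPLA2 with DMSO and 100% = wells lacking LYPLA2 enzyme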
Target sequence (O95372 whole entry, looked up): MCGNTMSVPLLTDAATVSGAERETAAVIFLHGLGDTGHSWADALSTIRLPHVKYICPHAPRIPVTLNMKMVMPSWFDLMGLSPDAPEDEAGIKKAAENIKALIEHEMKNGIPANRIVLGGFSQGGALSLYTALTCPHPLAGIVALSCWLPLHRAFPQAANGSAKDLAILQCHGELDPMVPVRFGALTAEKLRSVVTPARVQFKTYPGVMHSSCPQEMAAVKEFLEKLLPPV
PAFAH1B2 inh: inhibitors of human PAFAH1B2; P68402; recombinant PAFAH1B2, FP-rhodamine activity probe, fluorescence polarization; inhibition, % at 3.39 µM; hit rate 1.2% among 340,000;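 active = inhibition above the mean of all tested compounds plus 3 SD, cut at about 24% in these data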;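 note: 0% = enzyme with DMSO and 100% = wells lacking PAFAH1B2; many of its hits are not listed in these tables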
PAFAH1B3 FP inh: PAFAH1B3 (human) inhibition; hit rate 0.28% among 340,000; inhibition, % at 3.39 µM; recombinant PAFAH1B3, FP-rhodamine probe, fluorescence polarization;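 active = inhibition above the screen-wide average of all tested compounds plus 3 SD, cut at about 25% in these data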;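 note: 0% = enzyme with DMSO only and 100% = wells lacking PAFAH1B3 protein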
GSTO1 counter: blocks human GSTO1 in RBBP9 counter-screen. recombinant GSTO1, activity-based probe fluorescence polarization. inhibition, % at 5.96 µM. hit rate 1.1% among 300,000. AID 1974;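 active = inhibition above the campaign mean inhibition plus 3 SD, cut at about 35% in these data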;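 note: 0% = GSTO1-1 with DMSO and 100% = wells lacking GSTO1-1 enzyme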
pPAFAH inh: inhibitors of human plasma PAF acetylhydrolase (pPAFAH) | AID 463082 | recombinant pPAFAH, FP-rhodamine probe fluorescence polarization | inhibition, % at 3.39 µM | Q13093 | hit rate 1.5% among 330,000;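 active = inhibition above the mean inhibition across the screen plus 3 SD, cut at about 25% in these data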;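 note: inhibitors block binding of the rhodamine activity-based probe so polarization drops; 0% = enzyme with DMSO and 100% = wells lacking pPAFAH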
LYPLA1 counter: LYPLA1 (human) inhibition in PME1 counter-screen | recombinant LYPLA1, FP-Rh probe fluorescence polarization | AID 2174 | hit rate 0.16% among 320,000 | inhibition, % at 5.9 µM | O75608;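 active = inhibition above the mean of all tested compounds plus 3 SD, set per campaign, cut at about 14% in these data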;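 note: inhibitors block serine hydrolase probe labeling of LYPLA1 so polarization falls; 0% = enzyme with DMSO and 100% = wells lacking LYPLA1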
PAD4 FP inh: inhibitors of human PAD4 | recombinant PAD4, RCA probe fluorescence polarization | inhibition, % at 6.36 µM | hit rate 0.41% among 330,000 | AID 485272;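 active = percent inhibition above a cutoff equal to the mean of all tested compounds plus 3 SD, cut at about 15% in these data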;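 note: 0% = PAD4 with RCA probe and DMSO and 100% = probe without PAD4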
Target sequence (Q9UM07 whole entry, looked up): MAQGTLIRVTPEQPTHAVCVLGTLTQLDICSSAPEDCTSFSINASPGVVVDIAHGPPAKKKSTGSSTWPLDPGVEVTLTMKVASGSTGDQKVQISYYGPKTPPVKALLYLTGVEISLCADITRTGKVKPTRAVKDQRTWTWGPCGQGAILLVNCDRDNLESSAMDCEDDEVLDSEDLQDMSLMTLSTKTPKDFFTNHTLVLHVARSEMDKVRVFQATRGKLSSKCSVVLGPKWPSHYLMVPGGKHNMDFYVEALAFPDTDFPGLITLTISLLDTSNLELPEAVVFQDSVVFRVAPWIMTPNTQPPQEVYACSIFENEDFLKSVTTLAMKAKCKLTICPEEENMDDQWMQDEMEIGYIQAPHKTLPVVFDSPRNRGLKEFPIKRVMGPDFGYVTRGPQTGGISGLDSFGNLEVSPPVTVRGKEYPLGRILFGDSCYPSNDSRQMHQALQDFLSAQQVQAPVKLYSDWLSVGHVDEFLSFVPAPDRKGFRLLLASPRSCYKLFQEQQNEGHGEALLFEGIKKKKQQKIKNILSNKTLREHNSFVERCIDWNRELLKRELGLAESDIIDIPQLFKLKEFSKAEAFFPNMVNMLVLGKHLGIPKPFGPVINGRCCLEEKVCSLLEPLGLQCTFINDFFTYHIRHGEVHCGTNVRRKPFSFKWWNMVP
* hit, by the source's call; . = not tested or not shown. An excerpt; the hit share may differ from the screen's.

Order of results: PME-1 primary, LYPLA2 counter, PAFAH1B2 inh, PAFAH1B3 FP inh, GSTO1 counter, pPAFAH inh, LYPLA1 counter, PAD4 FP inh
C/C=C(\C)C(=O)NCCN1C2=NC[C@H](C(C)C)N2C[C@H]1Cc1ccc(O)cc1
  4, 6, -5, 7, 3, 3, 4, 2
COc1cc(/C=N/NC(N)=O)ccc1OCC(=O)Nc1cc(C)c(C)cc1Br
  1, 9, 6, 0, -3, 0, -1, -3
COC(=O)c1[nH]c2cc(C)ccc2c1NC(=O)CN1CCc2cc(OC)c(OC)cc2C1
  2, 5, 2, 8, -3, 5, -3, 3
Cc1ccc(-c2ccc(=O)n(CC(=O)NCCN(CC(C)C)CC(C)C)n2)cc1
  -2, -8, -3, 2, 7, 0, -2, 4
Cc1cccc(-n2c(SCC(=O)Nc3ccc4c(c3)OCO4)nnc2-c2ccoc2C)c1
  -5, -1, -2, 1, -3, 1, -2, -2
COc1ccc(NC(=O)CN2CCN(c3nc(-c4cccc(OC)c4)cs3)CC2)cc1
  4, 33*, 2, 4, 3, 5, 1, 3
COCCn1cc(C(=S)N2CCCCC2)c2ccccc21
  5, -3, -1, -5, 6, 1, -1, -4
COc1ccc(N(C)C(=O)C2CCN(S(=O)(=O)c3cccc4nonc34)CC2)c(OC)c1
  6, 1, 4, 13, -5, 2, 1, -1
CN1CCN(C(=S)c2cn(CCOc3ccccc3F)c3ccccc23)CC1
  8, -1, 6, 3, 8, 8, 1, 4
Cc1ccc(C)c(S(=O)(=O)C(C#N)c2nc3ccccc3nc2N2CCOCC2)c1 (configuration not stated)
  -2, 0, 0, 0, 7, 5, 1, -4
Cc1oc(-c2cccc(Cl)c2)nc1CN1CCC(C(=O)N2CCN(c3ccccn3)CC2)CC1
  3, -5, 3, 5, -2, 6, -1, 4
c1ccc(-c2ccc(-c3[nH]ncc3CN3CCC(N4CCSCC4)CC3)cc2)cc1
  1, 3, -4, 3, -3, 3, 2, 2
COc1cc2[nH]c(C(=O)N3CCc4ccccc43)cc2c(OC)c1OC
  11, 14, 4, 9, 0, 14, 6, -3
C=CCn1c(=O)c2c(nc3n2CC(C)CN3CCc2ccccc2)n(C)c1=O (configuration not stated)
  2, 1, 3, 0, 6, 3, -1, 2
CCCCOc1ccc(C(O)C(CN2CCOCC2)c2ccccc2)cc1 (configuration not stated)
  0, 8, 1, 4, -4, 4, 1, -3

Order of results: PME-1 primary, LYPLA2 counter, PAFAH1B2 inh, PAFAH1B3 FP inh, GSTO1 counter, pPAFAH inh, LYPLA1 counter, PAD4 FP inh
Cc1nnc(SCCCn2c(N3CCN(c4ccccc4)CC3)nc3c2c(=O)[nH]c(=O)n3C)s1
  0, -3, 0, -1, -2, 4, 0, 2
COC(=O)CSc1ccc(S(=O)(=O)N2CCOCC2)cc1[N+](=O)[O-]
  16, -1, 6, 6, 11, 1, -2, 6
CC(C)Cc1[nH]c(=O)c(C#N)c2c1CCCC2
  0, 2, 7, 1, -7, -3, -3, -4
C=CCn1c(SCC(=O)Nc2ccc3c(c2)OCO3)nnc1-c1ccccc1OC
  9, -3, 1, -2, -2, 3, -1, 3
CCOC(=O)c1[nH]c2ccc(OC)cc2c1NC(=O)CCN1CCCC(C)C1 (configuration not stated)
  -8, 10, 2, 0, 3, 3, 1, 1
CCOC(=O)c1[nH]c2ccc(OC)cc2c1NC(=S)N1CCN(c2ccc(F)cc2)CC1
  2, -4, 1, -5, 2, 6, -2, -2
CC(=O)c1ccc(N2CCN(c3ccccc3O)CC2)c([N+](=O)[O-])c1
  5, 12, -1, 2, -7, 4, 2, -8
CN1CCN(C(=S)c2cn(CCOc3ccccc3)c3ccccc23)CC1
  0, 5, 7, 4, 4, 2, 3, 3
CCOC(=O)c1ccc(N=C2S/C(=C\c3cc(C)n(-c4cccnc4)c3C)C(=O)N2C)cc1
  13, -3, 2, 6, 3, -1, -2, -1
N=c1c2c(n(Cc3ccc(Cl)c(Cl)c3)c3c1CCC3)CCCC2
  8, 2, 1, 3, 2, 1, -1, -5
CC(Oc1ccc(C(C)(C)C)cc1)C(=O)NC1CC(C)(C)NC(C)(C)C1 (configuration not stated)
  2, 0, 2, -5, 2, 1, -2, 4
C=C(C)Cn1c(=O)c2c(nc3n2CCCN3CCc2ccccc2)n(C)c1=O
  4, -5, 0, 2, -13, 3, -5, 2
Cc1ccc(C)c(S(=O)(=O)C(C#N)c2nc3ccccc3nc2N2CC(C)OC(C)C2)c1 (configuration not stated)
  2, 0, 3, -5, 4, 7, -3, 1
COc1ccccc1-n1c(SCC(=O)Nc2ccc(F)cc2)nc2c(c1=O)SCC2
  -4, 4, 3, 14, 33, 1, -1, -4
CC(O)CNc1nc2c(c(=O)n(Cc3ccc(Cl)c(Cl)c3)c(=O)n2C)n1C (configuration not stated)
  1, 6, 4, -1, 0, 5, 4, 0

compound,PME-1 primary,LYPLA2 counter,PAFAH1B2 inh,PAFAH1B3 FP inh,GSTO1 counter,pPAFAH inh,LYPLA1 counter,PAD4 FP inh
Cc1cc(C)cc(OC(=O)CS(=O)c2ccc(C(F)(F)F)cc2[N+](=O)[O-])c1 (configuration not stated),3,1,11,-6,14,4,-2,7
Cn1c(=O)[nH]c(=O)c2c1nc(N1CCNCC1)n2Cc1cccc2ccccc12,7,2,3,8,4,8,-1,-2
O=C1CC(N2CCN(C/C=C/c3ccccc3)CC2)C(=O)N1CCc1ccccc1 (configuration not stated),0,-6,4,-3,2,5,0,2
COc1ccc(CCN2C(=O)c3[nH]nc(-c4ccccc4O)c3C2c2ccccc2)cc1OC (configuration not stated),-5,4,5,4,4,2,-2,4
O=C(COC(=O)Cc1ccc(Cl)c(Cl)c1)Nc1ccc2[nH]c(=O)[nH]c2c1,-3,-7,2,7,-12,3,0,0
COc1ccc(C2CC(c3ccc(Cl)c(Cl)c3)Nc3nc(N)nn32)cc1 (configuration not stated),0,6,7,-2,0,6,3,-1
CC(C)Cn1c2c(c(O)c(C(=O)Nc3ccc(F)cc3)c1=O)CCCC2,-4,-5,1,3,2,3,-3,-1
OCCN1CCN(c2nc(NCc3ccco3)c3ccccc3n2)CC1,-2,5,-1,12,5,4,1,1
Cn1c(SCC(=O)NC2CCCCC2)nnc1-c1cc2ccccc2o1,-4,4,2,7,8,8,0,-1
COc1ccc(S(=O)(=O)C(C#N)c2nc3ccccc3nc2N2CCCCC2)cc1 (configuration not stated),9,2,9,10,16,-1,0,-1
CC(C(=O)Nc1cc([N+](=O)[O-])ccc1Cl)N1CCN(c2ccccc2O)CC1 (configuration not stated),5,1,-1,8,2,7,-2,0
C=CCSc1nc(=O)n2ccc(C)cc2n1,0,-4,-3,3,-10,27*,1,1

compound,PME-1 primary,LYPLA2 counter,PAFAH1B2 inh,PAFAH1B3 FP inh,GSTO1 counter,pPAFAH inh,LYPLA1 counter,PAD4 FP inh
COc1cccc(-n2c(SCC(=O)Nc3nccs3)nnc2-c2ccoc2C)c1,6,7,6,3,1,3,3,-3
CCOc1cc(/C=N/NC(N)=O)ccc1OC(=O)c1ccc(C)cc1,4,4,.,.,5,5,-1,-5
CC(=O)N1CCN(C(=S)NC(=O)c2ccc(S(=O)(=O)N3CCOCC3)cc2)CC1,-4,-2,0,-1,2,0,-1,0
N#Cc1nc(-c2ccc(OCc3ccccc3)cc2)oc1NCCN1CCOCC1,15,12,.,.,-8,19,-1,4
O=C(CCN1C(=O)c2ccccc2C1=O)Oc1ccc2ccccc2c1,-5,5,13,-4,-5,4,-1,-3
Cn1c(=O)[nH]c(=O)c2c1nc1n2CCCN1CCc1ccccc1,-6,-2,-4,-1,0,4,2,-6
CC1CN(C(=O)CCC(=O)NCCCN2CCC(Cc3ccccc3)CC2)c2cc(Cl)ccc2O1 (configuration not stated),2,0,-1,-2,-2,4,1,-2
CN(c1ccccc1)S(=O)(=O)c1cccc(C(=O)OCC(=O)Nc2ccc(C(N)=O)cc2)c1,.,.,2,4,.,5,.,2
COc1cc(/C=C(\C#N)c2nc3ccccc3[nH]2)cc(Br)c1OCc1ccccc1,-21,-25,-11,-24,-40,5,-16,-1
O=C(CSc1nc2nn(-c3ccccc3)c(=O)c-2c2n1CCCCC2)c1ccc(OC(F)F)cc1,.,.,-3,8,.,11,.,-3
COc1ccc(NC(=O)CSc2nc3c(c(=O)n2-c2ccc(C)cc2)SCC3)c(OC)c1,-4,2,1,6,4,3,2,3
O=C(CCn1c(=O)[nH]c2ccccc2c1=O)NCCCN1CCN(c2cccc(Cl)c2)CC1,3,1,6,3,2,7,4,-4

compound,PME-1 primary,LYPLA2 counter,PAFAH1B2 inh,PAFAH1B3 FP inh,GSTO1 counter,pPAFAH inh,LYPLA1 counter,PAD4 FP inh
O=C(CCC(=O)N1CCOc2ccc(Cl)cc21)NCCCN1CCC(Cc2ccccc2)CC1,-8,1,3,0,8,1,1,5
Cc1oc(-c2cccs2)nc1CS(=O)CC(=O)NCCCN1CC(C)CC(C)C1 (configuration not stated),0,-3,3,-3,1,4,-1,0
CN(c1ccccc1C(=O)N1CCN(c2cccc(Cl)c2)CC1)S(C)(=O)=O,-5,6,3,6,6,0,2,3
O=C1c2[nH]nc(-c3ccccc3O)c2C(c2ccccc2)N1Cc1ccco1 (configuration not stated),0,-7,5,0,-56,0,-9,1
COC(=O)c1c(NC(=O)CN2CCN(c3ccccc3)CC2)c2c(C)cccc2n1C,-6,1,4,0,0,2,2,-4
NCCCn1c(C(=O)c2ccc(Cl)cc2)c2ccc([N+](=O)[O-])cc2[n+]1[O-],3,-2,5,10,17,10,-1,-12
CCOC(=O)c1[nH]c2ccc(OC)cc2c1NC(=O)CCN1CCN(Cc2ccccc2)CC1,-14,-1,1,5,-1,8,-5,0
O=C(Oc1ccc(Br)cc1C(=S)N1CCCC1)c1ccccc1F,-2,4,8,4,3,12,-4,1
Cc1c(CCC(=O)N[C@@H](CC(C)C)C(=O)O)c(=O)oc2c(C)c3oc4c(c3cc12)CCCC4,1,3,11,6,-9,6,-3,-2
CC1C(=O)N2CCCc3cc(NC(=O)C(=O)NCCc4c[nH]c5ccccc45)cc1c32 (configuration not stated),2,4,3,0,7,10,-2,1
C/C=C(\C)C(=O)NCCN1C2=NC[C@H](Cc3ccccc3)N2C[C@H]1Cc1ccc(O)cc1,3,5,-1,2,5,1,4,0
CCN1CCN(c2cc(C)c3cc(NC(=S)N4CCN(c5ccc(F)cc5)CC4)ccc3n2)CC1,-5,-1,-1,7,7,8,-1,-3
CCOC(=O)N1CCN(C(=O)CSc2nc(=O)n3ccc(C)cc3n2)CC1,-4,0,0,0,-8,9,1,-4
CC(CSc1nnnn1-c1ccccc1)Cn1c(N2CCN(C)CC2)nc2c1c(=O)[nH]c(=O)n2C (configuration not stated),0,1,-3,3,6,3,4,1

Record cards, from the list above. Screens in order: PME-1 primary, LYPLA2 counter, PAFAH1B2 inh, PAFAH1B3 FP inh, GSTO1 counter, pPAFAH inh, LYPLA1 counter, PAD4 FP inh
O=C1c2[nH]nc(-c3ccccc3O)c2C(c2ccccc2)N1Cc1ccco1 (configuration not stated) in the list: 0, -7, 5, 0, -56, 0, -9, 1
CCOC(=O)c1[nH]c2ccc(OC)cc2c1NC(=O)CCN1CCN(Cc2ccccc2)CC1 in the list: -14, -1, 1, 5, -1, 8, -5, 0
Cc1oc(-c2cccs2)nc1CS(=O)CC(=O)NCCCN1CC(C)CC(C)C1 (configuration not stated) in the list: 0, -3, 3, -3, 1, 4, -1, 0

High-throughput results: PubChem, The Scripps Research Institute Molecular Screening Center
